Screening results as filed in PubChem BioAssay.
A1 inh – inhibitors of the anti-apoptotic protein A1, read as caspase activation; 330,000 tested, 0.066% active; AID 2462; caspase activation, % (concentration not given with the values); MEF A1-2A-BIM cells, Caspase-Glo 3/7 luminescence, 3 h; percent of clofoctol response, vehicle zero;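 active = over half of replicate activation scores above 10%, or exactly half above 10 with the replicate mean above 10; inconclusive = replicate mean below 10 yet half the replicates above 10; inactive = over half of replicates below 10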;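 also: wells of about 30 µL received 50 nL stock; many hits fall short of the cut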
MLL AF4-AF9 inh – blocks AF4 peptide binding to human AF9; P42568; AlphaScreen, biotin-AF4 peptide binding to FLAG-AF9; inhibition, % at 10 µM; 350,000 tested, 0.47% active; AID 651704;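 active = every replicate reaching a set inhibition limit, whatever the replicate mean, cut at about 25% in these data; inconclusive = mean inhibition reaches that limit but some replicates miss it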;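 also: 0% = plate neutral control median and 100% = total signal loss; the record names both 10 and 1 µM as test concentration; the first replicate is given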
Target sequence (P42568 whole entry, looked up): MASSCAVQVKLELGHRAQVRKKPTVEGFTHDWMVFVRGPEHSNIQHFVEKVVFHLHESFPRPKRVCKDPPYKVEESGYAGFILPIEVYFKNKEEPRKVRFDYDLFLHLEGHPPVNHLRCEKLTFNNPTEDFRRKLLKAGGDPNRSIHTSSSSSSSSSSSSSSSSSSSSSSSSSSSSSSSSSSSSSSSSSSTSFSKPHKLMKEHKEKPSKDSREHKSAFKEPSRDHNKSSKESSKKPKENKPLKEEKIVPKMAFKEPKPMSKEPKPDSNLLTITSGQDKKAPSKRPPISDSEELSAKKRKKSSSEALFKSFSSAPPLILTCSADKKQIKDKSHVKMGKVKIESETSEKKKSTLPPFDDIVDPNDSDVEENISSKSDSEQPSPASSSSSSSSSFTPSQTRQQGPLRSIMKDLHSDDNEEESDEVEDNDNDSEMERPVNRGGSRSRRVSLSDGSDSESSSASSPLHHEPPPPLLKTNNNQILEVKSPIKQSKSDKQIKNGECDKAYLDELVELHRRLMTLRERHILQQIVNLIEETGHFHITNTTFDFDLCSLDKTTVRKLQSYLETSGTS
T cruzi repl – blocks replication of Trypanosoma cruzi; T. cruzi beta-gal in NIH3T3, luminescence, 90 h; inhibition, % (concentration not given with the values); 300,000 tested, 1.4% active; AID 1885;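 active = mean inhibition across valid replicates above about 55%, limit read from the data; inconclusive = mean below that limit but half or more replicates reach it; inactive = mean below it, under half of replicates reach it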;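 also: signal also drops with host cell toxicity which is not excluded here; 0% = plate median of DMSO wells and 100% = zero luminescence signal; higher percent means less beta-gal luminescence so fewer parasites; stock transfer was 50 nL into about 50 µL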
Vif A3G – HIV-1 Vif–A3G interaction blockers – biochemical, TR-FRET, GST-Vif 1-94, biotin-A3G peptide, dose response retest, primary screen (AID 1117319) | TR-FRET GST-Vif / biotin-A3G peptide binding; higher % means a stronger effect; test concentration not given here; strong numbers were not always called active | inhibition, %, or IC50 in µM where a hit was titrated | 260,000 tested, 0.57% active;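 active = above the screen mean plus three standard deviations and confirmed in dose response; inconclusive = results disagree or hit not tested in dose response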;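 also: Vif residues 1-94 fused to GST binding biotinylated APOBEC3G peptide 110-148; 0% = full assay without inhibitor and 100% = GST in place of GST-Vif; retest series ran down from 100 µM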
Beta cell apopt – blocks beta cell apoptosis. INS-1E cytokine-induced death, ATP luminescence, 48 h; percent of positive-control rescue, neutral wells zero. protection from apoptosis, % (test concentration not listed). 300,000 tested, 0.8% active;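 active = all replicates at 75% or more, or half of them and the mean; inconclusive = half reach 75% but not the mean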;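 also: 0% = cytokine-treated negative control wells and 100% = positive control rescue; higher means more ATP so stronger rescue from cytokine killing; wells of about 40 µL received 100 nL stock; the first replicate is given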
rRNA inh HTS – selective bacterial rRNA inhibition in E. coli | E. coli WT GFP vs humanized-ribosome RFP mutants, fluorescence, 24 h; hits give low values; DMSO median 0, no signal -100 | GFP signal change (wild-type ribosome), % (no concentration beside the values) | 350,000 tested, 1.6% active;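 active = significant combined selectivity score with lowered wild-type GFP, culture density cut under 30%, mutant RFP and density less affected; inactive = any of these conditions unmet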; also: one replicate is shown; some compounds called inactive have numbers as strong as hits
Calb FLC – C. albicans growth modulation with fluconazole | AID 1979 | C. albicans CaCi-2 (fluconazole-resistant clinical isolate) + fluconazole, Alamar Blue growth, 48 h | growth inhibition, % (concentration not given with the values) | 300,000 tested, 0.57% active;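 active = most replicates above 75%; inconclusive = exactly half above 75%; inactive = most below 75%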;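 also: all wells also contain fluconazole at 8 µg/ml as a sub-toxic cotreatment; 0% = median of DMSO wells and 100% = median of geldanamycin control wells; wells of about 8 µL received 7.5 nL stock; the first replicate is given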
RanGTP-Impb inh – disruptors of Ran-importin-beta complex formation – biochemical, FRET, CFP-Ran, YFP-importin-beta, homogeneous, primary screen; cell-free CFP-Ran/YFP-importin-beta FRET ratio; AID 2216; inhibition, % (concentration not given with the values); 300,000 tested, 1.1% active;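 active = most replicates above 15%; inconclusive = exactly half above 15%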;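 also: 0% = DMSO wells and 100% = Ran loaded with GDP instead of GTP; wells of about 40 µL received 100 nL stock; the first replicate is given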
rRNA inh HTS OD600 – further read-out of rRNA inh HTS, marked with its call; OD600 change, %; measured here: OD600 growth;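 optical density of the mix in the first replicate; 0 = DMSO median and -100 = no signal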
rRNA inh HTS RFP – second read-out of rRNA inh HTS, no call of its own (marks repeat the call); RFP signal change, %; measured here: RFP humanized mutant strains;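 first replicate; 0 = DMSO median and -100 = no signal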
* = called active by the depositor; ? = inconclusive; nt = not tested or not shown; & = joins results of further samples.

SMILES	A1 inh	MLL AF4-AF9 inh	T cruzi repl	Vif A3G	Beta cell apopt	rRNA inh HTS	rRNA inh HTS OD600	rRNA inh HTS RFP	Calb FLC	RanGTP-Impb inh
CCCCCCCCCCCCCCCC(=O)OC[C@H](COP(=O)([O-])OCC[N+](C)(C)C)OC(=O)CCCCCCCCCCCCCCC	nt	nt	-12.9	0.1%	nt	nt	nt	nt	2.2	-2.2
CC1(C)CC2(CCO1)OC(=O)CC2C(=O)NCc1ccccc1 (centres undefined)	0.7	nt	5.9	-2.9%	-3.4	nt	nt	nt	14.6	-2.6
C=CCOc1nc2c(c(=O)n(C)c(=O)n2C)n1Cc1ccccc1Cl	-0.5	nt	4.5	?	24.0	nt	nt	nt	10.7	-3.7
CCNS(=O)(=O)c1ccc(CCC(=O)NCCC2=CCCCC2)cc1	0.4	-1.9	-20.1	3.4%	-2.9	-5.4	-9.5	-2.6	-5.9	-2.9
Cc1oc(-c2ccccc2F)nc1CS(=O)CC(=O)NCCN1CCCCC1C (centres undefined)	-0.7	-0.6	12.4	nt	-1.7	4.5	14.9	-0.5	-7.3	-2.1
Cc1cccc(S(=O)(=O)NNC(=O)Cc2cccn2C)c1	0.5	0.6	-17.4	nt	-1.4	17.0	14.8	2.3	1.0	-2.4
CC1C2CC(C(S(=O)(=O)N3CCOCC3)C2=O)C1(C)C (centres undefined)	0.3	nt	4.3	-2.6%	nt	nt	nt	nt	2.2	0.2
Cc1ccc(S(=O)(=O)N2CCCCC2CCNC(=O)C(=O)NC2CC2)cc1 (centres undefined)	0.1	-0.1	3.9	nt	0.6	5.1	-0.8	0.7	3.8	2.8
CS(=O)(=O)C1=NSC2=NC(=O)/C(=C\c3cccn3-c3ccccc3Cl)C(=N)N21	1.0	3.3	-6.4	2.9%	-3.8	-30.3	-33.5	1.5	7.5	-1.7
COc1ccc(NC(=O)CN2CCc3ccccc3C2)cc1OC	-0.6	0.5	-10.4	-4.0%	5.6	0.5	3.7	0.4	-1.1	-5.1
Cc1cc(O)c(C(C[N+](=O)[O-])c2ccc(Cl)cc2Cl)c(=O)o1 (centres undefined)	0.4	nt	-6.0	1.4%	-4.3	-8.6	-5.6	-1.8	?	?
CNC(=O)C(C)NS(=O)(=O)c1ccc(F)cc1 (centres undefined)	0.1	nt	-38.2	-4.1%	-7.4	nt	nt	nt	-3.0	4.2
Cc1ccc(C(=O)N2CCN(C(=O)c3ccco3)CC2)cc1NC(=O)c1ccco1	-0.1	0.8	-3.8	-6.4%	4.1	7.6	14.6	1.3	-25.7	-2.2
CC(=O)Nc1cccc(NC(=S)Nc2cccc3ccccc23)c1	-0.5	0.2	5.1	5.3%	16.2	3.8	6.6	1.2	-1.6	-4.8
O=C(O)c1ccc(/C=N/NC(=O)C(O)(c2ccccc2)c2ccccc2)cc1	2.1	3.3	-10.0	3.1%	4.0	9.2	6.0	-0.1	-2.8	-0.1
CCOc1ccc(NC(=O)CCS(=O)(=O)c2ccc3c(c2)CCCN3C(=O)CC)cc1	2.0	nt	7.1	15.3%	2.5	nt	nt	nt	-2.4	-4.8
Cc1cc([N+](=O)[O-])nn1CC(=O)Nc1ccc(F)cc1	0.2	-3.1	-5.2	14.7%	1.4	14.4	9.3	0.8	-7.9	3.8
Cc1ccc(S(=O)(=O)NCCN=C(CN2CCOCC2)NS(=O)(=O)c2ccc(C)cc2)cc1	0.6	nt	18.4	-3.7%&-6.9%	-1.6	nt	nt	nt	-18.7	nt
C=CCOc1cccc(C2NC(=O)c3ccccc3O2)c1 (centres undefined)	0.3	-3.8	-8.8	0.2%	-9.9	5.9	6.0	-0.6	1.0	3.8
CCn1cc(CN2CCc3c([nH]c4ccccc34)C2c2cccc(OC)c2)c(C)n1 (centres undefined)	0.3	9.9	20.3	-3.4%	-4.3	4.6	-6.9	0.2	11.3	4.8
COc1cc(OC)c(C#N)c(S(=O)(=O)Cc2ccccc2)c1	-0.1	nt	13.1	-3.4%	-2.8	nt	nt	nt	nt	5.7
COCCCNC(=O)C(=O)Nc1cc2c3c(c1)CCC(=O)N3CCC2	0.4	-0.8	-18.8	4.0%	-2.1	7.9	10.1	-2.1	32.9	1.2
COc1ccc(S(=O)(=O)NCCSCc2ccco2)cc1C	-0.8	0.3	-7.8	11.4%	-5.4	-0.4	0.9	3.8	17.0	-4.1
CCOc1ccc(NC(=O)Cn2c(=O)oc3cc(Cl)ccc32)cc1	-0.7	-3.3	-4.5	6.1%	-6.5	-1.8	-12.0	1.9	4.3	0.7
O=c1oc2ccccc2c(O)c1/C=C1\C=Nc2ccccc21	-0.2	nt	12.6	18.2%	-6.8	nt	nt	nt	-4.7	-3.3
COc1cccc(NC(=O)CN(C)C(C)C(=O)Nc2ccc(C#N)cc2)c1 (centres undefined)	0.6	-4.3	3.5	5.4%	3.8	-2.7	4.3	-2.0	-5.5	0.1
Cc1nc2ccc(S(=O)(=O)NC(C(=O)N3CCn4c3nc3ccccc34)C(C)C)cc2s1 (centres undefined)	-0.1	-11.7	0.0	-3.4%	1.9	5.4	-0.1	-6.2	8.8	-0.7
CCC(=O)Nc1ccc(C(=O)Nc2ccc(Br)cc2F)cc1	0.4	-1.3	-6.9	-5.4%	0.3	12.1	17.7	-0.9	0.2	2.7
CC1c2cc3c(cc2CCN1C(=O)c1ccc(Br)cc1)OCCCO3 (centres undefined)	1.0	2.7	-1.0	nt	9.1	-10.1	-37.0	7.0	4.2	1.1
Cc1[nH]n2c(=O)c3c(nc2c1-c1ccccc1)CCC3	-0.2	nt	3.3	11.0%	-8.2	nt	nt	nt	34.4	-2.7
COc1cc(Cl)c(C)cc1NC(=O)COC(=O)C1CC1C (centres undefined)	0.6	-4.6	nt	nt	-3.8	-0.6	-4.6	1.2	nt	nt
CC1Cc2cc(S(=O)(=O)N3CCC(C(=O)N(C)Cc4ccccc4)CC3)ccc2N1C(=O)C1CC1 (centres undefined)	0.0	0.7	-1.0	-3.3%	nt	-15.8	-8.0	4.8	-3.4	1.2
O=C(CSc1nnnn1C1CCCC1)Nc1ccc(F)cc1	0.4	nt	1.4	-3.1%	8.6	nt	nt	nt	-1.4	0.6
Cc1ccc(SCC(=O)Nc2ccc(C(=O)Nc3ccc(O)cc3)cc2)cc1	0.4	-0.4	-35.6	2.9%	-2.0	10.9	8.2	-0.4	3.6	2.8
Cc1ccc(SC(C)C(=O)NCc2ccc(F)cc2)cc1 (centres undefined)	1.4	-10.7	-7.0	11.4%	-2.1	7.2	3.2	-0.9	-2.7	-1.9
CCOC(=O)C1=C(C)NC2=C(C(=O)CCC2)C1c1cccnc1 (centres undefined)	1.1	nt	5.3	-0.3%	-3.8	nt	nt	nt	21.5	1.9
O=C(c1ccc(S(=O)(=O)N2CCOCC2)cc1)N1CCN(c2ccc(F)cc2)CC1	0.4	nt	7.9	4.7%	0.8	nt	nt	nt	0.6	-13.2
C/C(=N\NC(=S)Nc1cccc(C)c1)c1ccco1	-0.2	36.4*	76.9*	?	3.3	5.0	6.2	0.9	-1.6	-6.3
COc1cc(C(=O)Nc2cc(C(F)(F)F)ccc2-n2cncn2)cc(OC)c1OC	0.3	-1.0	23.4	7.7%	7.6	0.5	6.7	-0.6	33.6	4.3
COc1ccccc1NC(=O)CSc1nnc(Cc2ccccc2)o1	-3.0	5.0	5.1	-3.0%	-6.8	nt	nt	nt	-5.3	-0.8

Sorted by heavy-atom count (falling): 5 of the compounds above
SMILES	A1 inh	MLL AF4-AF9 inh	T cruzi repl	Vif A3G	Beta cell apopt	rRNA inh HTS	rRNA inh HTS OD600	rRNA inh HTS RFP	Calb FLC	RanGTP-Impb inh
COc1cc(C(=O)Nc2cc(C(F)(F)F)ccc2-n2cncn2)cc(OC)c1OC	0.3	-1.0	23.4	7.7%	7.6	0.5	6.7	-0.6	33.6	4.3
CC1c2cc3c(cc2CCN1C(=O)c1ccc(Br)cc1)OCCCO3 (centres undefined)	1.0	2.7	-1.0	nt	9.1	-10.1	-37.0	7.0	4.2	1.1
CCOc1ccc(NC(=O)Cn2c(=O)oc3cc(Cl)ccc32)cc1	-0.7	-3.3	-4.5	6.1%	-6.5	-1.8	-12.0	1.9	4.3	0.7
O=c1oc2ccccc2c(O)c1/C=C1\C=Nc2ccccc21	-0.2	nt	12.6	18.2%	-6.8	nt	nt	nt	-4.7	-3.3
Cc1ccc(SC(C)C(=O)NCc2ccc(F)cc2)cc1 (centres undefined)	1.4	-10.7	-7.0	11.4%	-2.1	7.2	3.2	-0.9	-2.7	-1.9

Later entries.
SMILES	A1 inh	MLL AF4-AF9 inh	T cruzi repl	Vif A3G	Beta cell apopt	rRNA inh HTS	rRNA inh HTS OD600	rRNA inh HTS RFP	Calb FLC	RanGTP-Impb inh
O=C(NCCCN1CCCCC1)C1CCCN(c2ncnc3c2nc2n3CCCCC2)C1 (centres undefined)	-0.4	8.4	5.8	nt	-1.7	9.4	1.5	-0.7	5.7	0.9
CCc1cccc(C)c1NC(=O)CCCC(=O)O	-0.3	nt	-3.2	-1.0%	3.2	nt	nt	nt	-0.2	-0.7
Cc1ccc(NC(=O)CCn2ccc([N+](=O)[O-])n2)nc1	0.0	0.1	-18.5	10.1%	-2.4	17.8	14.5	-2.4	0.6	2.0
Cc1[nH]n(-c2ccc(Cl)cc2)c(=O)c1C=Nc1ccc(S(=O)(=O)N2CCOCC2)cc1	-6.2	nt	-2.4	15.4%	7.1	nt	nt	nt	-3.2	0.9
CCC(NS(=O)(=O)c1ccc(OC)cc1)C(=O)NCCC1=CCCCC1 (centres undefined)	0.1	-9.2	-9.0	-3.7%	1.3	4.5	9.9	-2.4	-17.0	1.2
O=C(NC1CC1)C1=C[C@@H](c2coc3ccccc3c2=O)C[C@@H](OCc2ccc(CO)cc2)O1	1.2	-1.0&1.3	-6.0	4.5%	1.3	-11.2	-5.3	0.5	-2.3	0.7
CCCNC(=O)Nc1nc(CC(=O)OCC)cs1	0.3	-0.7	-18.5	-5.3%	0.5	3.4	6.1	-2.3	36.1	-1.5
[O-]C1=N/[N+](=C/c2ccc(Cl)cc2)CC1	-0.4	nt	-3.7	23.4%	2.0	nt	nt	nt	-2.1	0.4
Cc1ccc(CN2CCNC(=O)C2CC(=O)N(C)C2CCCCC2)o1 (centres undefined)	-0.5	0.3	-16.4	4.8%	5.2	12.9	2.5	1.7	21.3	1.0
COc1ccc(OC)c(C2c3[nH]c4ccccc4c3C[C@H]3C(=O)N(CCCOC(C)C)CC(=O)N23)c1 (some centres undefined)	-0.5	5.0	16.9	-1.2%	2.0	-1.4	-7.1	-1.0	-3.4	?

Some of the compounds tested; rates above refer to the full screens.
